# UCH37 inh: inhibitors of human UCH37 deubiquitinase, primary screen, biochemical, Ub-AMC cleavage, fluorescence | AID 588478, 2011 | purified proteasome/UCH37 | Ubiquitin carboxyl-terminal hydrolase isozyme L5 (Homo sapiens), Q9Y5K5 | inhibition, % (test concentration not listed) | 0.33% of 330,000 active;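 active = mean of two replicates above 20%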;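 note: 0% = compound-free wells with enzyme and 100% = wells lacking proteasome; stock transfer was 100 nL into about 20 µL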
# Target sequence (Q9Y5K5 whole entry, looked up): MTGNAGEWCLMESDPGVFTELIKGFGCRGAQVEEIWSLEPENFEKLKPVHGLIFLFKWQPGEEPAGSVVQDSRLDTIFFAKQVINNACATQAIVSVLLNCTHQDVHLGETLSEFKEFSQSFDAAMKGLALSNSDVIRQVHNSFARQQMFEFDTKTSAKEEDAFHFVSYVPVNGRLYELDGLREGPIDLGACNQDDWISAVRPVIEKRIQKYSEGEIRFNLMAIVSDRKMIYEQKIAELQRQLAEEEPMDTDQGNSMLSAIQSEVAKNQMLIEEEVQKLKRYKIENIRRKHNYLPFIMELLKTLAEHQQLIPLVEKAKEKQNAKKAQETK
#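 Material: human UCH37 enzyme supplied as purified proteasome complex / Amount: 0.15 nM proteasome as dispensed / Buffer or medium: pH 7.4 Tris-HCl (50 mM) with ovalbumin, ATP-MgCl2, DTT / Times: preincubation 30 min, reaction 25 min, room temperature / Technique: AMC fluorescence from Ub-AMC cleavage, excitation 355 nm, emission 460 nm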
# MLL AF4-AF9 inh: inhibitors of AF4 peptide binding to AF9, primary screen, biochemical, AlphaScreen, biotin-AF4 peptide, FLAG-AF9, single point; Protein AF-9 (Homo sapiens), P42568; inhibition, % at 10 µM; 0.47% of 350,000 active;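 active = every replicate reaching a set inhibition limit, whatever the replicate mean, cut at about 25% in these data; inconclusive = mean inhibition reaches that limit but some replicates miss it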;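 note: 0% = plate neutral control median and 100% = total signal loss; the record names both 10 and 1 µM as test concentration; the first replicate is given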
# Ecoli growth: E. coli growth inhibition, primary screen, OD600 | OD600 absorbance (no concentration beside the values) | Escherichia coli growth, 23 h; hits give low values | 0.21% of 330,000 active;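 active = OD600 absorbance below the run mean of sample wells minus 3.6 SD, in any replicate, cut at about 0.56 in these data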;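 note: stock transfer was 300 nL into about 60 µL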
# HNF4A DNA FP: change in binding of human HNF4A to DNA, primary screen, biochemical, fluorescence polarization, FITC-DNA; activity change, % at 10 µM; 0.3% of 360,000 active; 1 h; Hepatocyte nuclear factor 4-alpha (Homo sapiens), P41235; in the data active = activity change above about 30%, passing the limit was not always enough;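 note: controls were the assay level and a saturating level of protein; the project sought stronger binding though the title names inhibitors; some compounds called inactive have numbers as strong as hits; positive values seem to mean higher polarization but the record does not say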
# Target sequence (P41235 whole entry, looked up): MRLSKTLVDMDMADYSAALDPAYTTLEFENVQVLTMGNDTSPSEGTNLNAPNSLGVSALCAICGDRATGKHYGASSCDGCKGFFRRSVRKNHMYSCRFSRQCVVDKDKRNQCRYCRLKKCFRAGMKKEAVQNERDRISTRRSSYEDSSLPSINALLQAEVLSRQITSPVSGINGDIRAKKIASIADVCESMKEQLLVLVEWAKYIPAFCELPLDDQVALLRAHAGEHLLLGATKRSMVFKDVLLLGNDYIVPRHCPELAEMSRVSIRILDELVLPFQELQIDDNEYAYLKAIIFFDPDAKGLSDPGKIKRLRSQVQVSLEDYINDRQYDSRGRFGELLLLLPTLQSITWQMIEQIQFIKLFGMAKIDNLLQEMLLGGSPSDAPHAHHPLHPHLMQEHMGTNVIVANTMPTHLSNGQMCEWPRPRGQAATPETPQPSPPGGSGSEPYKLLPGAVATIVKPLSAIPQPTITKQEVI
# FGF22 binding: binders of human FGF22 protein, primary screen, FGF22 synaptogenesis inhibitor project, biophysical, thermal shift, single point | calls only at 9.99 µM | 1.5% of 340,000 active | Fibroblast growth factor 22 (Homo sapiens), Q9HCT0 | recombinant FGF22 thermal shift, SYPRO orange fluorescence; percent of sucrose octasulfate shift, DMSO zero;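 active = melting point raised past a set limit in the mean and every replicate; inconclusive = no clear call; three in four hits are not shown here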
# Target sequence (Q9HCT0 whole entry, looked up): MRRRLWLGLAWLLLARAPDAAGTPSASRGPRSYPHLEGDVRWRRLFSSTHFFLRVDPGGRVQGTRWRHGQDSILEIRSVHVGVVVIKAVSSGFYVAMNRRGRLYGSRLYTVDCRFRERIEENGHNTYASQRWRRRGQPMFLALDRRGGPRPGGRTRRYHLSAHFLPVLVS
# RanGTP-Impb inh: inhibitors of RanGTP-importin-beta interaction, primary screen, biochemical, FRET, CFP-Ran, YFP-importin-beta, homogeneous; Ran GTPase (GTP-bound) - importin-beta complex; cell-free CFP-Ran/YFP-importin-beta FRET ratio; inhibition, % (no concentration beside the values); 1.1% of 300,000 active; AID 2216, 2009;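 active = most replicates above 15%; inconclusive = exactly half above 15%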;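 note: 0% = DMSO wells and 100% = Ran loaded with GDP instead of GTP; wells of about 40 µL received 100 nL stock; the first replicate is given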
# Vif TR-FRET: inhibitors of Vif binding to APOBEC3G peptide, primary screen, biochemical, TR-FRET, GST-Vif 1-94, biotin-A3G peptide, dose response retest (AID 1117319); Virion infectivity factor (Human immunodeficiency virus type 1 group M subtype B (isolate …; TR-FRET GST-Vif / biotin-A3G peptide binding; higher % means a stronger effect; test concentration not given here; strong numbers were not always called active; one-dose inhibition, %; IC50 in µM for titrated hits; 0.57% of 260,000 active;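 active = above the screen mean plus three standard deviations and confirmed in dose response; inconclusive = results disagree or hit not tested in dose response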;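 note: Vif residues 1-94 fused to GST binding biotinylated APOBEC3G peptide 110-148; 0% = full assay without inhibitor and 100% = GST in place of GST-Vif; retest series ran down from 100 µM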
# * hit, by the source's call; i = inactive; ? = inconclusive; nt = no result given; + = active, no number; & = joins results of further samples. Not all compounds are listed, so the mix of outcomes need not match the whole.
SMILES,UCH37 inh,MLL AF4-AF9 inh,Ecoli growth,HNF4A DNA FP,FGF22 binding,RanGTP-Impb inh,Vif TR-FRET
Cc1ccc(C(=O)COC(=O)c2ccc(Br)o2)cc1C,4.2,nt,0.685,-1.7,nt,-1.4,-2.3%
O=C(Cn1c(C(=O)N2CCc3ccccc3C2)cc2sccc21)c1ccccc1,0.6,-33.4,0.765,2.6,i,-1.4,-13.2%
N#CC(=C(c1ccccc1)c1ccccc1)c1ccccc1,-54.8,0.0,0.711,0.7,i,nt,-1.1%
CC1CCC(NC(=O)CN(C)S(=O)(=O)c2ccc3c(c2)CCC(=O)N3)CC1 (stereo not given),-0.1,-4.8,0.626,-0.7,i,-0.1,nt
CC(NC(=O)c1ccco1)c1ccc2c(c1)OCO2 (stereo not given),3.1,-1.7,0.702,1.3,i,2.9,-2.5%
C[C@@H]1C2CC(C/C2=N\NC(=O)c2ccncc2)C1(C)C (stereo not given in full),nt,1.4,nt,-1.8,i,0.3,nt
CC(=O)Nc1ccc(CNc2nc3cc(-c4ccccc4C)sc3c(=O)n2C)cc1,nt,0.1,nt,2.1,i,nt,nt
COc1ccc(NC(=O)N2CCNC(=O)C2CC(=O)Nc2ccc(F)cc2)cc1 (stereo not given),1.3,2.4,0.629,-3.3,i,-5.2,-2.6%
Oc1ccccc1C1Nc2cccc3cccc(c23)N1,nt,nt,0.666,1.7,nt,-0.3,20.0%
COc1ccc(N=Nc2ccc3ccccc3c2)c(O)c1,4.8,1.3,0.73,-1.6,i,1.2,nt
COc1cc2nc3occc3c(OC)c2cc1OC,3.7,-4.2,0.685,5.7,i,4.5,-1.9%
O=C(O)C(Cc1c[nH]c2ccccc12)N1C(=O)C2C3c4ccccc4C(c4ccccc43)C2C1=O (stereo not given),2.0,-0.9,0.694,-0.4,i,2.8,-1.1%
O=C(Nc1ccc(S(=O)(=O)Nc2nccs2)cc1)C1CC(=O)N(c2ccc(Cl)cc2)C1 (stereo not given),4.2,-14.5,0.713,4.8,i,-5.2,nt
O=C(c1ccccc1[N+](=O)[O-])N1CCC(Cc2ccccc2)CC1,3.7,2.3,0.72,1.0,i,-1.5,2.4%
CCC(=O)N(CCCN(C)C)c1nc(-c2cc(OC)ccc2OC)cs1,4.4,nt,0.692,-0.1,nt,-1.5,0.4%&-16.0%
CCn1c(SCC(=O)N/N=C(\C)c2ccncc2)nnc1-c1ccc(C)cc1,nt,-0.8,nt,-2.9,i,1.3,26.9%
CC1CCCC(C)N1C(=O)CN1C(=O)C(C)(C)Oc2ccc(C(=O)NC3CCCCC3)cc21 (stereo not given),5.3,nt,0.679,-0.6,nt,3.2,-1.3%
CC(=O)c1ccc(OCc2cc(C(=O)NC3CCCCC3)no2)cc1,1.1,-1.4,0.664,-2.1,i,-1.5,nt
NC(=O)c1cccnc1OCC(F)(F)F,0.1,nt,0.693,0.7,i,1.9,14.0%
O=C(Cc1cccs1)N1CCN=C1SCc1ccccc1Cl,1.2,-0.3,0.709,-1.4,i,0.7,?
COc1cccc(NC(=O)c2cc(S(=O)(=O)N3CCc4ccccc43)cn2C)c1,2.2,-11.9,0.66,2.1,i,5.3,nt
CC(=O)NCCn1c(SCc2ccc(C)cc2)nc2ccccc2c1=O,-1.7,nt,0.725,0.7,nt,-1.3,-3.2%
CC12CCC(=O)N1C(C(=O)Nc1ccc(Cl)c(Cl)c1)CS2 (stereo not given),1.5,-0.9,0.69,1.7,nt,1.9,1.7%
CC(C)CC(C(=O)OCC(=O)c1c(N)n(C)c(=O)n(C)c1=O)N1C(=O)c2ccccc2C1=O (stereo not given),4.4,nt,0.702,-3.0,nt,0.2,-4.1%
CCC1CCCCN1CCCNC(=O)CN1C(=O)COc2ccccc21 (stereo not given),3.9,9.9,0.683,-1.2,i,-1.3,-3.5%
NS(=O)(=O)c1cccc(NC(=O)CN2C(=O)C(=O)N(Cc3ccccc3)C2=O)c1,1.2,0.8,0.677,-0.1,i,nt,-6.6%
COC(=O)CCCC1=CC2=C(c3ccccc3)C(=O)C(C)(OC(=O)C3CCCC3)C(=O)C2=CN1CC(C)C (stereo not given),3.0,4.0,0.726,-10.2,i,1.1,nt
COc1ccc(N2CCOCC2)c(NC(=O)COc2cccc(C)c2)c1,3.2,1.8,0.737,-3.4,i,nt,nt
COc1ccccc1N(CC(=O)NCCSCc1ccco1)S(=O)(=O)c1ccccc1,5.6,5.5,0.659,-2.2,i,-2.4,-2.9%
CCNc1c(NS(=O)(=O)c2ccc(Br)s2)c(=O)oc2ccccc12,-4.4,-2.1,0.698,7.2,+,2.3,nt
COc1cccc(C(C)NC(=S)NCc2ccc(Cl)cc2)c1 (stereo not given),1.6,-4.1,0.64,-0.2,i,5.3,-7.8%
O=C(COC(=O)c1ccccc1O)Nc1ncc(Cl)cc1Cl,0.7,0.8,0.701,-22.1,i,-5.4,4.7%
COc1ccc(F)cc1COc1nc(C)nc2ccccc12,1.7,1.5,0.702,-1.2,i,1.0,nt
Cc1ccc(OCCCC(=O)N(C)CC(=O)Nc2c(C)cccc2C)cc1,nt,-5.6,nt,3.1,i,nt,-4.9%
COc1ccc(Oc2ccc(/C=C/C(=O)c3cccc(OC)c3)cc2[N+](=O)[O-])cc1,0.5,4.0,nt,-0.5,i,-5.9,6.8%
Cc1occc(=O)c1OCc1ccc(Cl)cc1Cl,1.3,-0.6,0.674,0.1,i,3.2,3.6%
CC1CCCC(C)N1C(=O)c1cc(-c2ccco2)on1 (stereo not given),0.0,-2.3,0.655,2.4,i,-2.6,17.4%
COC(=O)C(C)n1cnc2c(nnn2-c2ccc(F)cc2)c1=O (stereo not given),-0.6,-2.8,0.671,0.3,i,3.2,nt
O=C(Nc1ccccc1)c1ccc(NCC2CCCO2)c([N+](=O)[O-])c1 (stereo not given),-1.0,nt,0.682,1.9,nt,-1.8,nt
COc1cc(/C=C/C(=O)OC2CC3CCC2(C)C3(C)C)ccc1O (stereo not given),1.3,12.9,0.777,3.0,i,0.6,nt
N/C(=N\O)c1cn(Cc2ccccc2Cl)c2ccccc12,nt,1.3,nt,0.5,i,-0.8,4.2%
COc1ccc(Cl)cc1N1Cc2ccccc2C1,1.5,nt,0.735,0.7,nt,1.4,4.4%
COCCNC(=O)c1c(N)n(/N=C/c2cccs2)c2nc3ccccc3nc12,nt,nt,nt,8.2,nt,95.3*,18.2%
COc1cccc(CNS(=O)(=O)c2ccc3c(c2)CC(C)N3C(C)=O)c1 (stereo not given),0.4,-1.8,0.69,7.8,i,-4.1,nt
CC(C)[C@H](NC(=O)c1ccccc1F)C(=O)Nc1nc2c(s1)CCCC2,1.7,-1.8,0.685,4.5,i,-0.7,1.0%
O=C1CN(C(=O)c2ccccc2)c2ccccc2N1,0.0,nt,0.677,3.4,nt,-1.3,1.6%
COC(=O)c1cccc(NC(=O)CSc2nnnn2C)c1,-1.0,nt,0.702,-0.7,nt,4.8,-4.9%
CC(=O)Nc1cc(=O)c2cccnc2[nH]1,-18.5,-3.3,0.688,-29.0,i,nt,0.1%
COc1ccc(Cl)cc1NS(=O)(=O)c1cn(C)nc1C,3.4,2.5,0.71,-4.0,i,-0.2,nt
CC(C)Oc1ccc(CN2CCC(n3nccc3NC(=O)C3CC3)CC2)cc1,3.7,0.1,0.696,-1.3,i,-0.3,4.6%
COc1cc(/C=N/O)cc(Br)c1OCc1ccc(Cl)cc1,nt,nt,nt,-1.2,nt,1.9,-1.6%
CCOCC(=O)Nc1ccc(S(=O)(=O)N2CCOCC2)cc1,3.2,nt,0.755,1.6,nt,-0.9,25.5%
Cc1ccc(NC(=O)Cn2nc(C)c3ccccc3c2=O)cc1,nt,nt,nt,-0.2,nt,-3.2,-0.5%
CCn1c(/C=C/c2ccccc2C)nc2ccccc2c1=O,2.6,2.4,0.687,-1.9,i,-2.7,-2.6%
O=C(Nc1ccncc1)c1cccc(S(=O)(=O)N2CCOCC2)c1,2.7,-0.9,0.714,3.6,i,0.4,-6.8%
COc1cccc(NC(=O)Cc2nnc(SCC(=O)NC3CCCCC3)n2C)c1,1.9,-0.5,0.648,-0.9,i,3.5,nt
COc1cccc(OCc2cc(C(=O)N3CCC(c4ccncc4)CC3)no2)c1,3.5,3.4,0.654,3.2,i,5.6,-1.9%
Cc1c(OCC(=O)OC(C)(C)C)ccc2c3c(c(=O)oc12)CCC3,-8.7,nt,0.754,7.3,nt,4.6,1.2%
COc1cc(NC(=O)Cc2nn(C)c(=O)c3ccccc23)cc(OC)c1,8.2,nt,0.74,-4.2,nt,6.8,-1.3%
CC(C)COP(=O)(c1ccc(N(C)C)cc1)C(O)c1ccccc1F (stereo not given),-0.7,nt,0.753,-3.0,nt,3.8,-0.8%

# Printed as active in RanGTP-Impb inh, of those listed so far:
structure	UCH37 inh	MLL AF4-AF9 inh	RanGTP-Impb inh	Vif TR-FRET
COCCNC(=O)c1c(N)n(/N=C/c2cccs2)c2nc3ccccc3nc12	nt	nt	95.3*	18.2%

# The list continues.
SMILES,UCH37 inh,MLL AF4-AF9 inh,Ecoli growth,HNF4A DNA FP,FGF22 binding,RanGTP-Impb inh,Vif TR-FRET
Cc1ccc(C)c(S(=O)(=O)N2CCCOC2CNC(=O)C(=O)NCc2cccnc2)c1 (stereo not given),1.8,-0.4,0.67,3.5,i,0.0,nt
COc1ccc(C(=O)NC(C)c2cccnc2)cc1S(=O)(=O)N(C)Cc1ccccc1 (stereo not given),-0.5,6.2,0.717,-0.6,i,nt,nt
O=C(CSCc1ccc(F)cc1)NCc1ccc(F)cc1,1.5,-3.2,0.72,1.4,i,1.7,nt
O=C(NCc1ccco1)C(=S)N1CCCCC1,0.3,-1.3,0.721,-1.4,i,3.8,-5.8%
CCCCCC(=O)Nc1ccc(C(=O)COC(=O)c2ccccn2)cc1,-1.1,0.0,0.64,2.2,i,-6.6,-4.7%
Oc1c(Br)cc(Br)cc1C=Nc1ccc2c(c1)OCO2,4.6,9.1,0.65,1.9,i,-15.9,nt
COc1ccc(NC(C)=O)cc1S(=O)(=O)N1CCN(Cc2cccs2)CC1,1.5,-4.0,0.594,-2.4,i,nt,0.5%
COCCNC(=O)C1Cc2c(-c3ccc(NC(C)=O)cc3)ccnc2O1 (stereo not given),nt,-0.2,nt,0.6,i,nt,nt
O=C(NN1C(=O)C2C3C=CC(C4CC34)C2C1=O)c1ccc(Cl)c(Cl)c1 (stereo not given),2.9,nt,0.713,2.1,nt,5.5,nt
CSc1cccc(CN2CCC(CO)(Cc3ccccc3)CC2)c1,1.1,3.3,0.592,2.3,i,0.6,23.4%
CCOC(=O)C1=C(CSc2nc(C)ccc2C#N)OC(N)=C(C#N)C1c1cccc(OC)c1OC (stereo not given),2.2,nt,0.777,2.9,nt,18.5*,70.0%&1.2%
Cc1noc(C)c1COc1ccc(C(=O)OCC(=O)Nc2cccc(S(=O)(=O)N3CCOCC3)c2)cc1,3.3,nt,0.747,-4.9,nt,0.4,8.6%
O=C1c2ccccc2OC2(C=Cc3ccccc3O2)N1Cc1ccccc1 (stereo not given),-2.5,nt,0.741,0.2,nt,0.4,0.3%
CN1CCN(Cc2c(O)ccc3cc(Br)ccc23)CC1,2.2,4.5,0.654,nt,i,0.8,-2.8%

# Screening data deposited in PubChem BioAssay by several laboratories.
